Screening results (PubChem)
UUG fidelity = yeast start codon fidelity modulation | S. cerevisiae UUG-firefly luciferase reporter, luminescence/redox ratio | activity score, % at 18.7 µM | actives 0.13% (n = 350,000);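 active = replicate mean at a twofold rise or more, about +100% in these data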;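 note: firefly luciferase made from a UUG start codon reports start codon fidelity; reporter light over untreated wells divided by growth signal over untreated wells; some hits fall short of that in this replicate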
Rce1 inh = yeast Ras-converting enzyme inhibition. Q03530. yeast membranes, quenched prenylated peptide cleavage fluorescence. calls only. actives 0.27% (n = 290,000). AID 2563;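 active = fall in fluorescence gain of 50% or more versus controls, with final raw signal at or below 3038400; inconclusive = same 50% fall but final raw signal above 3038400; inactive = fall in fluorescence gain under 50%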;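 note: plate controls were neutral control wells for no effect and wells lacking membranes for full effect; tested at 10 µM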
Target sequence (Q03530 whole entry, looked up): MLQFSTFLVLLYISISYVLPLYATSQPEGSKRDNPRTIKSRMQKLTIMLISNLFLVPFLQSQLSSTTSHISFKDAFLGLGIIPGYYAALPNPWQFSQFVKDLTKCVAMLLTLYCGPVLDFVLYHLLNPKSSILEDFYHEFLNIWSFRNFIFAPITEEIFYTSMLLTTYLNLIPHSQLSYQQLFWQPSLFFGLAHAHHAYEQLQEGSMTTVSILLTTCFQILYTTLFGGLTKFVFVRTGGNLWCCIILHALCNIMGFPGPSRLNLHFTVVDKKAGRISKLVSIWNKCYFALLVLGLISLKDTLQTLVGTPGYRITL
MT1-MMP act inh = blocks activation of human MT1-MMP. HT1080 RFP-PRO-GFP cells, GFP/RFP ratio fluorescence, overnight; percent of plate control window, DMSO zero. GFP/RFP ratio change, % at 20 µM. actives 0.061% (n = 360,000);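 active = GFP/RFP ratio change of at least 30% with cell ATP level not reduced by more than half and red fluorescence within 50% of control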; note: strong numbers were not always called active
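Material – HT1080 RFP-PRO-GFP cells · Control set – DMSO wells and RFP-L50D-GFP cells · Incubation – overnight cell settling, then overnight compound exposure, 37 °C, 5% CO2 · Compound dosing – single-point 20 µM compound, 1% DMSO · Read-out – GFP/RFP fluorescence ratio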
Env fusion inh = blocks HIV Env-driven cell-cell fusion; AID 651610; inhibition, % at 12.3 µM; actives 1.1% (n = 360,000); HeLa-JRFL Env/CEM21 cell fusion, luciferase;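 active = mean replicate inhibition score of at least 50 and every replicate individually at or above 50; inconclusive = only one of the two criteria met; inactive = mean below 50 and not all replicates reaching 50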;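 note: 0% = plate neutral controls and 100% = maraviroc near 300 nM; one replicate is shown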
eIF4H inh = inhibitors of RNA binding by human eIF4H; Q15056; eIF4H fluorescence polarization binding assay; inhibition, % at 35 µM; actives 0.94% (n = 290,000); AID 2012;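 active = 50% or more with normal probe brightness, or confirmed in later tests; inconclusive = above 50% with abnormal brightness, or retests that disagree; inactive = below 50% or failed in later tests; about a fifth of its hits are not listed in these tables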;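 note: calls also rest on retests at 20 µM and on dose response follow-up; 0% = protein and probe with vehicle and 100% = probe without protein; strong numbers were not always called active; many hits fall short of the cut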
CSC inhib = cancer stem cell inhibition; cancer stem cell-like cells viability, luminescence; inhibition, % at 7.5 µM; actives 1.1% (n = 300,000);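 active = mean at 75% or more and at least half the replicates too; inconclusive = mean and replicates disagree; tested in HMLE shEcad cells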;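 note: 0% = median of negative and 100% = median of positive control wells; the first replicate is given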
PABP FP inh = blocks human PABP binding to poly(A) RNA; fluorescence polarization; inhibition, % at 35 µM; actives 1% (n = 290,000);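 active = 50% or more with normal probe brightness, or confirmed in later tests; inconclusive = above 50% with abnormal brightness, or retests that disagree; inactive = below 50% or failed in later tests; about a fifth of its hits are not listed in these tables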;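 note: calls also rest on retests at 20 µM and on dose response follow-up; controls were probe without protein and protein plus probe with vehicle; some compounds called inactive have numbers as strong as hits; many hits fall short of the cut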
eIF4H inh retest = recorded beside eIF4H inh, whose call it bears; inhibition, %; compound at 20 µM; confirmation average;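 mean of two retest wells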
PABP FP inh retest = recorded beside PABP FP inh, whose call it bears; inhibition, %; compound at 20 µM; confirmation repeats;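 mean of two retest wells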
MT1-MMP act inh RFP = also measured in MT1-MMP act inh; calls as there; RFP signal change, %; measured here: RFP expression control read;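 0 = vehicle wells; hits needed this value within 50% of zero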
Starred values were filed as active, the others as inactive; i = inactive; ? = inconclusive; nt = no result given. Only part of the results is shown; count on the stated rates, not on these rows.

SMILES | UUG fidelity | Rce1 inh | MT1-MMP act inh | MT1-MMP act inh RFP | Env fusion inh | eIF4H inh | CSC inhib | PABP FP inh | others
Cc1ccc(NC(=O)O/N=C2\CCCCC2c2ccc([N+](=O)[O-])cc2[N+](=O)[O-])cc1 (stereo not drawn) | nt | i | -2 | 1 | nt | 1 | 2 | -12
NC(=O)CN1C(=O)C2C3CCC(C3)C2C1=O (stereo not drawn) | -15 | nt | -3 | 2 | 12 | nt | nt | nt
CCCNc1nc(=S)n(-c2ccccc2)c(C)c1C(C)=O | nt | i | 5 | 5 | 26 | -2 | -6 | -5
O=C1CN=C(Nc2cccc(C(F)(F)F)c2)N1C1CCCC1 | -22 | i | 3 | 2 | 2 | 0 | -1 | 15
COc1ccc(C(=O)OC2C(OC)OCC(O)C2O)cc1 (stereo not drawn) | -13 | nt | 3 | -1 | 1 | nt | nt | nt
COc1ccc(OC)c(NC(=O)COC(=O)CCNc2ccccc2OC)c1 | 7 | nt | 2 | 0 | 7 | nt | -2 | nt
COc1cccc(-c2nn(C)c3sc(C(=O)NCc4ccc(C)o4)cc23)c1 | -6 | i | -5 | -14 | -11 | 4 | -3 | 2
Cc1nonc1NC(=O)CSc1nnc(-c2ccoc2C)n1CC(C)C | 4 | i | 1 | 6 | -157 | -8 | 16 | -4
c1cncc(CSc2ccc(-c3cccnc3)nn2)c1 | -18 | i | 2 | 4 | -12 | 2 | -10 | -5
O=C(Cc1ccccc1)N1CCN(C(=O)c2ccc([N+](=O)[O-])cc2)CC1 | nt | i | -1 | 3 | 19 | 1 | -17 | 5
CC1=Nc2ccccc2N=C(NC(=O)/C=C/C(=O)O)C1c1ccccc1 (stereo not drawn) | nt | i | -3 | 2 | -25 | -6 | -5 | -6
COc1ccc([C@H]2CC(=O)C=C(c3cccc(C(C)C)c3)C2)cc1OC | -10 | nt | -9 | -32 | 63* | nt | -1 | nt
O=C(O)c1ccc2[nH]c3c(c2c1)CSCC3 | -9 | i | -1 | 4 | nt | 56* | 0 | 41 | eIF4H inh retest=62*;PABP FP inh retest=42
CC(C)(C)C(=O)Nc1nnc(SCc2cccc(F)c2)s1 | nt | i | 2 | 2 | -26 | 0 | -10 | -15
CCN(CC(=O)Nc1cc(Cl)ccc1C)C(=O)C1CCCCC1 | nt | i | 4 | -5 | 0 | -11 | -1 | -2
CCOc1cccc2sc(Nc3nc4ccc(NC(C)=O)cc4s3)nc12 | nt | i | -6 | -18 | 6 | 10 | -10 | -8
CCCCn1c(SCC(=O)Nc2cc(C(F)(F)F)cc(C(F)(F)F)c2)nnc1C(CC)N(C)C (stereo not drawn) | -4 | i | -1 | 0 | nt | -6 | 2 | 10
Cc1cccc(NC(=O)CCSc2nc(C)cc(C)n2)c1 | -11 | i | 0 | -1 | nt | 2 | -2 | -9
N#Cc1cc2c(nc1SCC(=O)Nc1sc3c(c1C#N)CCC3)CCCC2 | -7 | i | -17 | -2 | nt | 9 | -11 | 8
COc1ccc(CN2CCN(Cc3ccccc3)C(CCO)C2)cc1OC (stereo not drawn) | nt | i | 1 | -2 | 1 | 0 | -12 | 6
COC(=O)c1sccc1S(=O)(=O)Nc1ccc(S(N)(=O)=O)cc1 | -19 | i | 6 | 0 | 3 | 1 | -12 | 4
CCOC(=O)c1cccc(NC(=O)c2cnc3ccccc3n2)c1 | 1 | i | 15 | -3 | nt | 2 | 4 | -21
CCOc1ccc(CCNC(=O)COC(=O)COc2cc(C)cc(C)c2)cc1OCC | nt | i | 0 | 8 | -14 | nt | nt | nt
CC(C)N1CCN(Cc2ccc(C#CC(C)(C)O)s2)CC1CCO (stereo not drawn) | 2 | i | 9 | 4 | 21 | 3 | -10 | -3
CN(C(=O)c1cccc(NC(=O)Cc2ccc(NC(=O)C3CCCN(C(=O)CCc4ccccc4)C3)cc2)c1)C1CCC1 (stereo not drawn) | -7 | nt | 4 | -25 | 33 | nt | nt | nt

Further entries follow:
SMILES | UUG fidelity | Rce1 inh | MT1-MMP act inh | MT1-MMP act inh RFP | Env fusion inh | eIF4H inh | CSC inhib | PABP FP inh | others
O=C(O)c1ccccc1Nc1ccc(OC(F)F)cc1 | nt | i | 3 | 1 | -17 | 0 | 22 | -5
c1ccc(-c2ccc(OCCOCCn3cncn3)cc2)cc1 | -17 | i | 0 | -1 | nt | 43 | -4 | 32
Cc1cc(C(=O)Nc2ccc3c(c2)OCCO3)co1 | -15 | i | -1 | 2 | nt | 8 | 5 | 8
O=C(O)CN1C(=O)c2ccc(Oc3ccc4c(c3)C(=O)N(CC(=O)O)C4=O)cc2C1=O | nt | i | 3 | 1 | -4 | 8 | 1 | 3
O=C(COC(=O)/C=C/c1ccc(Cl)cc1)NC1CCS(=O)(=O)C1 (stereo not drawn) | -8 | nt | 2 | 0 | -22 | nt | nt | nt
Cc1ccccc1-c1nc(CS(=O)(=O)CC(=O)NCc2ccc(F)cc2)c(C)o1 | 9 | i | 4 | -3 | -6 | -11 | -9 | -14
O=C(NCCN1CCOCC1)c1cn(CCc2ccccc2)nn1 | -7 | i | 4 | 8 | -18 | -6 | -4 | -7
COc1ccc(-c2nc3ccc(Cl)cn3c2Cc2ccc(C)cc2)cc1OC | -17 | nt | 5 | 3 | -72 | nt | nt | nt
CC(C)(C)NC[C@H](O)COc1cccc2c1CCCC2=O | -16 | nt | 3 | 3 | -4 | nt | -15 | nt
CCn1cc(C(=O)OCC(=O)OC2CC(C)CCC2C(C)C)c(=O)c2ccc(C)nc21 (stereo not drawn) | 0 | i | 1 | -7 | ? | 9 | -12 | 2
COc1ccc(C(=O)c2cc([N+](=O)[O-])ccc2N2CCN(C)CC2)cc1 | nt | i | -12 | -13 | -36 | -5 | 48 | 4
COC(=O)c1ccc(/C=C2/C(=O)Oc3ccccc32)cc1 | nt | i | -1 | -1 | -8 | -5 | -1 | 4
Cc1ccc(-c2nc(=O)[nH]c3ccc(Br)cc23)cc1 | -5 | i | -3 | -5 | -7 | 1 | -12 | 3
Cc1ccc(NS(=O)(=O)c2cccc(C(=O)O)c2)c(C)c1 | -1 | i | 0 | -6 | nt | 2 | -11 | -2
Cc1ccc(S(=O)(=O)N(C)C)cc1NC(=S)NCCCn1ccnc1 | -25 | i | 0 | 1 | 10 | 54 | -6 | 4 | eIF4H inh retest=-9;PABP FP inh retest=0
CC(=O)c1ccc(N2CCN(C(=O)c3cc(C)on3)CC2)cc1 | -9 | i | -5 | 1 | nt | 6 | -26 | -2
Cc1c(-c2cc(C(=O)O)no2)cnn1C | nt | i | -11 | 2 | -2 | 15 | 12 | -9
O=C1[C@H](Cc2ccccc2)NCC=CC[C@@H](c2ccco2)N1Cc1ccccc1 | -9 | nt | -5 | 0 | 33 | nt | nt | nt
Brc1ccc(-c2nc(-c3ccncc3)no2)cc1 | -17 | i | 0 | -5 | -73 | -1 | -13 | 1
O=C(NCc1ccncc1)c1ccc(Cn2cc(C(F)(F)F)ccc2=O)cc1 | -27 | i | -4 | 4 | -6 | 3 | -1 | -9
O=C(CSc1nnc2c(n1)[nH]c1ccc(S(=O)(=O)N3CCOCC3)cc12)Nc1ccccc1Cl | -20 | i | -3 | -15 | 8 | -4 | -8 | -11
COc1ccccc1C(=O)COC(=O)Cn1c(C)csc1=O | -16 | i | 8 | 5 | 23 | nt | nt | nt
Cc1cccc(C)c1NC(=O)c1sc(Cl)nc1C | nt | i | 5 | 4 | -9 | -15 | 3 | -1
CN(CC(=O)Nc1ccccc1-c1ccccc1)Cc1ccccc1Cl | 12 | i | -3 | -6 | 24 | -12 | -9 | -11
CC(C)(C)NC(=O)CN(Cc1ccc2c(c1)OCO2)C(=O)CCC(=O)Nc1nccs1 | nt | i | 5 | 5 | -21 | -4 | -1 | -8

(cont.)
SMILES | UUG fidelity | Rce1 inh | MT1-MMP act inh | MT1-MMP act inh RFP | Env fusion inh | eIF4H inh | CSC inhib | PABP FP inh | others
COc1ccc(-c2nn(-c3ccccc3)cc2/C=C2/SC(=S)N(CCC(=O)O)C2=O)cc1 | 6 | i | nt | nt | -1 | -14 | 28 | -9
Cc1noc(NC(=O)c2ccccc2Cl)c1C#N | -18 | i | -2 | 0 | nt | -6 | -9 | 2
COc1ccc(OC)c(NC(=O)COC(=O)C2CCCCC2)c1 | -16 | nt | -3 | 1 | 8 | nt | -14 | nt
COc1ccc(C(=O)N(Cc2ccccc2)c2ccc(C)cc2)cc1S(=O)(=O)N1CCOCC1 | -2 | i | -3 | -2 | 17 | nt | 12 | nt
CS(=O)(=O)N1CCC(C(=O)Nc2ccc(Cl)c(C(F)(F)F)c2)CC1 | 23 | i | -1 | -3 | 19 | -9 | -11 | -2
COc1ccc2[nH]c(-c3cccc(F)c3)cc(=O)c2c1 | 4 | i | 24 | 6 | i | 0 | 76* | -7
CS(=O)(=O)Nc1ccc(-c2cncc3nccn23)cc1 | -9 | nt | -9 | -6 | -53 | nt | nt | nt
Cc1nc2nc(NC(=O)c3ccco3)[nH]n2c(=O)c1C | -12 | i | 0 | 1 | 1 | -15 | -8 | -2
O=c1c(-c2ccccc2)nc(-c2ccccc2)cn1O | 1 | i | 4 | 8 | nt | 7 | -7 | -8
Cc1nnc2c(NCCC(C)C)nc3ccccc3n12 | -4 | i | 21 | 3 | 8 | 8 | 1 | 1
O=C(CCN1CCN(c2ccc(Cl)cc2)CC1)Nc1ccccc1F | -8 | i | 1 | -4 | nt | 3 | -2 | 3
S=C(c1ccc(-c2cccc(Cl)c2)o1)N1CCCCC1 | nt | i | -3 | -2 | -103 | -4 | nt | 8
COc1cccc(CN2CCN(Cc3ccc4cccc(F)c4n3)CC2CCO)c1 (stereo not drawn) | -11 | i | 1 | -5 | 3 | 5 | -2 | -1
Cc1cccc(-n2nnc(C(=O)NCc3ccc4c(c3)OCO4)c2N)c1 | -17 | i | -7 | -6 | 8 | -1 | -2 | -7
COc1ccccc1NC(=O)C(O)C(O)C(=O)Nc1ccccc1OC (stereo not drawn) | -16 | i | 2 | 3 | -48 | -1 | 6 | 2
O=C(CSc1ccc(-c2ccc(F)cc2)nn1)N1CCCCC1 | 0 | i | 10 | 3 | nt | -7 | 7 | 0
Cc1cc(NC(=O)Cn2nc(C(F)(F)F)c3c2CCCC3)no1 | 3 | i | -1 | 1 | nt | 7 | 6 | -2
COc1ccccc1OCCNC(=O)CNC(=O)c1ccc(Cl)c(Cl)c1 | nt | i | 5 | 2 | -1 | nt | -11 | nt
CCc1nn2c(NCCOC)cc(C)nc2c1-c1ccc(F)cc1 | nt | i | -2 | -5 | 7 | -3 | 1 | 4
O=C(O)C(O)(c1ccccc1)C(O)c1ccccc1 (stereo not drawn) | nt | i | -2 | 5 | -20 | nt | -6 | nt
CCC/C=N/NC(=O)c1cc(Br)ccc1O | nt | i | 2 | 2 | -11 | -7 | nt | -20
O=C1c2ccccc2S(=O)(=O)c2cc(C(=O)N3CCN(c4ccc(Cl)cn4)CC3)ccc21 | 6 | i | 1 | 3 | -11 | nt | 3 | nt
CCCNC(=O)C[C@@H]1C[C@H]2c3cc(NC(=O)c4ccc5c(c4)OCO5)ccc3O[C@H]2[C@@H](CO)O1 | -8 | nt | 0 | 2 | 2 | nt | nt | nt
Cc1cc2ccccc2c(=O)n1CC(=O)NCC(=O)N1CCN(c2ccccc2F)CC1 | -12 | i | 11 | 1 | 26 | 0 | 3 | -1
O=C(CCNS(=O)(=O)c1cccs1)NCc1ccco1 | -21 | i | 0 | 6 | -13 | 0 | 1 | 0
